CBX7 inh: blocks human CBX7 binding to H3K27me3 peptide. O95931. AlphaScreen His6-CBX7 / biotin-H3K27me3 peptide binding; stronger effect = lower value. normalised signal (fraction of DMSO) (concentration not given with the values). 66,000 tested, 1.1% active; in the data active means normalised signal below about 0.5;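 further: 100 nL library stock added to about 20 µL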
Target sequence (O95931 whole entry, looked up): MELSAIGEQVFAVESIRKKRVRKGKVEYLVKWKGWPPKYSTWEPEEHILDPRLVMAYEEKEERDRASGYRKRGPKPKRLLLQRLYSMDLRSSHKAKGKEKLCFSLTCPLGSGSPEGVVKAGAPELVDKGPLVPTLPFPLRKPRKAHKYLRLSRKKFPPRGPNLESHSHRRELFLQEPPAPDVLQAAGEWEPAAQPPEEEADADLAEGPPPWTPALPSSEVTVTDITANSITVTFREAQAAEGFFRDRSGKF
CBX7 inh z-score: also measured in CBX7 inh; calls as there; z-score; measured here: z-score of CBX7 signal; some inactives read as strong as hits; reference of the scale not given here;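 same signal on another scale; lower means less binding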
Active calls of the source: *.

SMILES | CBX7 inh | CBX7 inh z-score
O=C(Cn1nc(Cc2ccncc2)c2ccccc2c1=O)Nc1cccnc1Cl | 1.3 | 3.1
Cc1ccc(S(=O)(=O)C2(C(=O)N3CCN(c4ccc(F)cc4)CC3)CC2)cc1 | 0.96 | -0.65
O=C(CCn1c(=O)[nH]c2ccccc2c1=O)NC1CCN(Cc2ccccc2)CC1 | 1.1 | 0.33
Cc1nc2ccc(S(=O)(=O)NC(C(=O)Nc3ccccn3)C(C)C)cc2s1 (centres undefined) | 1.1 | 1.7
Cc1ccc2c(c1)NC(=O)C(CC(=O)NCCCN(Cc1ccccc1)C(C)C)O2 (centres undefined) | 0.99 | -0.53
O=c1c2ccccc2nc(SCc2ccc(F)cc2)n1CC1CCCO1 (centres undefined) | 0.79 | -1.6
CCOc1ccc(-n2cc(C(=O)Nc3c(F)cccc3F)c3cc(OC)c(OC)cc3c2=O)cc1 | 0.95 | -1.4
O=C(Nc1ccccc1Cl)c1cnc2ccccn2c1=O | 0.88 | -1.7
O=C1N(CCc2ccccc2)c2ccc(Br)cc2C1(O)c1c[nH]c2ccccc12 (centres undefined) | 0.86 | -0.48
Cc1nc2nc(C)c(CCC(=O)Nc3ccc(Br)c(C)c3)c(C)n2n1 | 1 | 0.1
CCOc1ccc(CNC(=O)C2CCN(C(=O)c3sccc3-n3cccc3)CC2)cc1 | 1 | 0.6
Cc1ccc(C)c(Cn2c(CCCNC(=O)c3cccs3)nc3ccccc32)c1 | 0.87 | -2.4
Cn1nc(-c2ccc(OCC(=O)Nc3ccc(F)cc3)cc2)c2ccccc2c1=O | 1 | 1
COCCNC(=O)c1ccc2c(=O)n(CCc3ccccc3)c(=O)[nH]c2c1 | 1 | 0.031
CCOc1ccc(CNC(=O)C2CCCN(c3nc4ccccc4o3)C2)cc1OC (centres undefined) | 1.1 | 5.4
Cc1ccc(-c2nc(CS(=O)(=O)CC(=O)NCCCN3CCN(C)CC3)c(C)o2)cc1 | 1.1 | 0.25
CCOc1ccc(CCNC(=O)C2CCC(=O)N2CCc2ccccc2)cc1OCC (centres undefined) | 1.2 | 2.9
COc1cccc(NC(=O)CN(c2ccc(C)cc2)S(=O)(=O)c2ccc(OC)c(OC)c2)c1 | 0.98 | -0.6
O=C(CN1C(=O)CSc2ccc(S(=O)(=O)N3CCOCC3)cc21)N1CCOCC1 | 0.87 | -1.6
COc1cccc(C2=NOC(C(=O)Nc3ccc(OC)c(OC)c3)C2)c1 (centres undefined) | 1 | 0.54
COc1ccc2[nH]c(C)c(CCNC(=O)Cn3nc(C(F)(F)F)cc3C)c2c1 | 0.79 | -0.21
O=C1CC(c2ccc(F)cc2)Sc2ccccc2N1 (centres undefined) | 0.89 | -2.2
O=C(CSc1nnc(-c2cccs2)o1)N1CCCCC1 | 1.1 | 1.7
COc1ccc(CNC(=O)c2ccc(CNc3c(N4CCC(C)CC4)c(=O)c3=O)cc2)cc1 | 1 | 0.033
COc1ccccc1N1C(=O)CC(c2cn(C)c3ccccc23)C1=O (centres undefined) | 1 | 0.33

(listing goes on)
SMILES | CBX7 inh | CBX7 inh z-score
CCc1ccccc1NC(=O)CN1C(=O)CSc2ncccc21 | 1.1 | 0.14
CC(=O)N1CCc2cc(S(=O)(=O)NC(CC(C)C)C(=O)Nc3cccc(C)c3)ccc21 (centres undefined) | 1 | 1.4
CN(C)CCNC(=O)C1CCN(C(=O)c2cc3sccc3n2C)CC1 | 1 | 0.29
CCC(=O)N1CCc2cc(S(=O)(=O)Nc3cc(C)ccc3OC)ccc21 | 1.1 | 1.1
COc1ccc(-n2nnc3c(=O)n(CC(=O)Nc4cccc(OC)c4)cnc32)cc1 | 0.93 | -1.4
CC(CCc1ccccc1)NC(=O)C1CCN(c2nnc(-n3cccc3)s2)CC1 (centres undefined) | 0.99 | -0.053
CCOc1ccc(-n2c(C)nc3cc(C(=O)NCCCOC)ccc32)cc1 | 1.1 | 2.4
COC(=O)c1c(NC(=O)C2CC2c2ccccc2)sc(C)c1C (centres undefined) | 0.95 | -0.64
O=C(CN1C(=O)CSc2ncccc21)NCCN1CCOCC1 | 1 | 1.1
Cc1ccc(OCc2nc3ccccc3n2CC(C)C)cc1 | 0.92 | -2.8
Cc1ccccc1NC(=O)c1ccccc1NC(=O)c1ccccc1F | 1.1 | 0.45
Cc1ccccc1NC(=O)c1cccc(S(=O)(=O)N2CCCCCC2)c1 | 1 | 0.015
Cc1ccc(-c2noc(COc3ccc(Cl)cc3)n2)cc1 | 1.1 | 1.9
COc1ccc(-n2nc(C(=O)NCC(=O)N3CCCC3)c3ccccc3c2=O)cc1 | 0.95 | -0.93
O=C(Nc1ccccc1C(=O)Nc1ccccc1)c1ccccc1Cl | 1 | 0.84
CCc1ccc(NC(=O)C(NS(=O)(=O)c2ccc3c(c2)CCN3C(C)=O)C(C)C)cc1 (centres undefined) | 1.1 | 2.9
Cc1cc(C(F)F)nc2sc3c(O)cc(=O)[nH]c3c12 | 1 | 0.16
Cc1cc(Nc2cccc(C(F)(F)F)c2)c2ccccc2n1 | 0.9 | -1
Clc1ccc(Oc2nc3ccccc3n3cnnc23)cc1 | 0.93 | -1.8
CCCCN(C)C(=O)C(Cc1ccccc1)NS(=O)(=O)c1ccc2c(c1)CCC(=O)N2 (centres undefined) | 1.2 | 4
CCOc1cccc(C(=O)Nc2ccc(-c3nc4ncccc4o3)cc2)c1 | 1.1 | 0.45
CCc1ccc(Nc2cc(C(=O)NCc3ccccc3OC)c3ccccc3n2)cc1 | 1.1 | 2.4
COc1ccc(Cl)cc1Nc1cc(C)c2ccccc2n1 | 1.1 | 0.99
CC1CCCC(NC(=O)c2cn(C3CCCCC3)c(=O)c3c2c2ccccc2n3C)C1C (centres undefined) | 0.97 | -0.64
COc1ccc(NC(=O)[C@@H](c2ccccc2)N2Cc3ccccc3C2=O)cc1Cl | 0.98 | -1.1

New compounds follow.
SMILES | CBX7 inh | CBX7 inh z-score
CC(C)CCNC(=O)CSc1nc(NCc2ccccc2)c2ccccc2n1 | 0.98 | -1.1
Cc1ccc(Nc2[nH]c(=O)c3ccccc3c2C(=O)c2ccccc2C)cc1 | 1.1 | 1.2
COc1ccc(CNC(=O)c2cc(-c3cccnc3)nc3ccccc23)cc1 | 1 | 0.27
CN1CCN(C(=O)C2CCN(c3nc4ccccc4[nH]3)CC2)CC1 | 0.91 | -0.99
O=C1CC(c2ccc(Cl)c(Cl)c2)c2ccc3ccccc3c2N1 (centres undefined) | 0.77 | -2.5
O=C(c1ccc2c(c1)N(Cc1cccc(F)c1)C(=O)c1ccccc1S2)N1CCCCCC1 | 0.9 | -1.3
CCOC(=O)C1(c2ccccc2)CCN(C(=O)c2[nH]c3ccc(OCc4ccccc4)cc3c2C)CC1 | 0.7 | -4.3
O=C(NCCO)c1cc2ccccc2oc1=O | 0.99 | -0.21
COCCCNC(=O)c1ccc2c(c1)N(Cc1cccc(C)c1)C(=O)CS2 | 0.93 | -0.74
O=C(NCc1ccccc1)c1ccccc1C(=O)c1ncc[nH]1 | 0.99 | -0.23
CCc1ccccc1NC(=O)Cn1ncc2c1-c1ccccc1OC2 | 1.2 | 1.1
O=C(CN1CCN(Cc2ccccc2Cl)C1=O)NCCCN1CCOCC1 | 0.97 | -0.38
Cc1ccc2c(c1)c(C)nn2Cc1ccc(F)cc1 | 1.1 | 4.9
O=C(CN1C(=O)CSc2ccccc21)NCC1CCCO1 (centres undefined) | 0.86 | -2.4
CN1C(=O)C2(CCNC2c2cc(C(C)(C)C)c(O)c(C(C)(C)C)c2)c2ccccc21 (centres undefined) | 0.93 | -0.49
O=C(Nc1ncc(Cc2cccc(Cl)c2Cl)s1)C1CC1 | 0.98 | -0.55
Cn1cnnc1SCC(=O)c1ccc2c(c1)CCCC2 | 0.87 | -2.4
Cc1cccc(-c2nc3cc(NC(=O)c4ccc(OCC(C)C)cc4)ccc3o2)c1 | 1 | 0.26
CCOC(=O)c1cnc2ccc(C)cc2c1NCCO | 1.1 | 0.81
COc1ccc(Cl)cc1NC(=O)CCN1CCN(C)CC1 | 0.62 | -5.6
COc1cc2nc(/C=C/c3ccccc3F)n(-c3ccc(F)c(Cl)c3)c(=O)c2cc1OC | 0.95 | -2.4
CCCCc1ccc(C(=O)Nc2ccc3nc(N4CCN(c5ncccn5)CC4)cc(C)c3c2)cc1 | 1 | 1.6
COC(=O)c1ccc(Cl)c(NC(=O)CN2C(=O)c3ccccc3S2(=O)=O)c1 | 1 | 1.3
COC(=O)c1ccc(NC(=O)Cn2nc(C)c3ccccc3c2=O)cc1 | 1 | 0.9
O=c1oc2ccccc2cc1-c1nnc(-c2cccc(Br)c2)o1 | 0.96 | -0.79

Next part:
SMILES | CBX7 inh | CBX7 inh z-score
CCOc1ccc(CN2CCN(c3ncnc4sc5c(c34)CC(C)CC5)CC2)cc1 (centres undefined) | 0.84 | -5.4
COc1cccc(C2=NOC(C(=O)N3CCCCC3)C2)c1 (centres undefined) | 0.94 | -0.87
COc1ccccc1-c1cc(C(F)(F)F)nc(S(=O)(=O)CCCC(=O)Nc2cc(C)on2)n1 | 1 | 0.29
O=C(O)C1C2C=CC3(CN(Cc4ccncc4)C(=O)C13)O2 (centres undefined) | 1 | 0.89
COc1ccc(OC)c(NC(=O)CCNS(=O)(=O)c2ccc3c(c2)CCC(=O)N3)c1 | 1 | 0.76
CCc1nnc(NC(=O)CCCOc2ccc(OC)cc2)s1 | 1.1 | 0.62
COc1ccc(OC)c2[nH]c(=O)c(CCNC(=O)COc3ccccc3)cc12 | 1 | 1.5
CCCCN(CCCC)CCNC(=O)CC1Oc2ccccc2NC1=O (centres undefined) | 1.2 | 1.2
O=C(COc1ccccc1)Nc1nnc(-c2ccc(Br)cc2)s1 | 1 | 1.1
COc1ccc(-c2nc(-c3ccccc3)no2)c(OC)c1 | 1.1 | 3.2
CCOC(=O)c1ccc(NC(=O)C2CC(=O)N(c3ccc(C(C)C)cc3)C2)cc1 (centres undefined) | 1 | 0.033
COc1ccc(Cn2c(CCC(=O)Nc3cc(OC)cc(OC)c3)nc3cccnc32)cc1 | 1.1 | 1.9
O=C(CSc1n[nH]c(-c2ccccc2)n1)Nc1ncccn1 | 0.84 | -2.6
O=C(CSc1nnc(CNC(=O)c2ccccc2F)o1)Nc1cccc(F)c1 | 1.1 | 2.5
COc1ccc(-c2c(C)nn3c(N4CCC(C)CC4)cc(C)nc23)cc1OC | 1.1 | 2.2
Cc1ccc(CNC(=O)CN2C(=O)COc3ccccc32)cc1 | 1 | 0.62
Cc1ccc(N2C(=O)CC(NC3CCCCCC3)C2=O)cc1 (centres undefined) | 1.2 | 1.8
CCOc1ccccc1C(=O)Nc1cc(Cl)ccc1C | 1.5 | 1.1
COc1cccc(-c2cc(C(=O)N3CCCc4ccccc43)no2)c1 | 1.1 | 0.67
Nc1ccc(C(=O)CC2(O)C(=O)N(Cc3ccccc3)c3ccccc32)cc1 (centres undefined) | 1 | -0.0076
CCc1nnc(NC(=O)CSc2n[nH]c(C)n2)s1 | 0.98 | -0.27
N#CCCN(C(=O)c1cc2c(s1)-c1ccccc1OC2)c1ccccc1 | 1.1 | 2.7
Cc1cccc(-c2nc(CSCC(=O)NC3CC3)c(C)o2)c1 | 0.91 | -1.6
COc1ccc(CN2CCN(Cc3ccc(F)cc3)CC2)c(OC)c1 | 1 | 0.18
COc1ccccc1Cc1noc(-c2ccc(C(C)(C)C)cc2)n1 | 1.2 | 2.5

Continuation.
SMILES | CBX7 inh | CBX7 inh z-score
O=C(NCc1ccc(F)cc1)c1cc(=O)[nH]c2ccc(S(=O)(=O)N3CCCCCC3)cc12 | 0.98 | -0.29
CCOc1ccc2c(c1)c(=O)c(S(=O)(=O)c1ccc(C)cc1)cn2Cc1ccccc1Cl | 0.92 | -3.1
COc1ccc(-c2cc(C(=O)N3CC4(C)CC3CC(C)(C)C4)no2)cc1 (centres undefined) | 1.3 | 1.8
Cc1oc(-c2ccccc2F)nc1CN1CCC(C(=O)NC2CCCC2)CC1 | 1 | 0.49
CC(CNC(=O)c1ccc2c(c1)N(Cc1ccccc1)CCS2)c1ccccc1 (centres undefined) | 0.88 | -0.16
Cc1c(C(=O)NCCC(C)C)oc2ccc(S(=O)(=O)N3CCCC3)cc12 | 1.1 | 3.1
CCOC(=O)c1[nH]c2c(c1CCC1CCCCC1)C(=O)CC(c1ccccc1)C2 (centres undefined) | 0.85 | -1.9
COc1ccc(-c2nn(C)c(=O)c3ccccc23)cc1NC(=O)c1ccccc1 | 0.95 | -1.8

Screens deposited in PubChem by several laboratories.

A portion of the library; count on the stated rates, not on these rows.
